ELG1 repair inh = qHTS screen for small molecules that inhibit ELG1-dependent DNA repair in human embryonic kidney (HEK293T) cells expressing luciferase-tagged ELG1; HEK293T ELG1-luciferase reporter, luminescence, 16 h; DNA damage induced by 5-fluorouridine; Potency, µM (titrated, usually from 46.1 µM), inactives show top-dose activity change, negative = inhibition, actives largely listed as inhibitors; 2.3% of 330,000 active; AID 504467, 2011; also: potency is read from the fitted curve at half-maximal effect; % is scaled to controls: 0 for no effect and ±100 for the full control effect; nearly all actives have a fitted effect of over 55% in size
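Reporter activity after DNA damage by 5-fluorouridine is monitored. Compound-treated cells incubate 16 hr at 37 °C, then ONE-Glo is added for 30 min before luminescence reading.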
KCNH2 3.1 block = qHTS for Inhibitors of KCHN2 3.1: Mutant qHTS; U2OS KCNH2 3.1, thallium flux FluxOr; stronger effect = lower value; Potassium voltage-gated channel subfamily H member 2, brain isoform KCNH2 3.1 (human); activity change, % (tested at about 1.8 µM); 0.95% of 340,000 active;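 active = maximum activity change below -70%; inconclusive = maximum activity change from -70% to -50%; inactive = maximum activity change above -50%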;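 also: thallium influx rate constant from kinetic fluorescence after stimulation buffer; % is scaled to controls: 0 for no effect and ±100 for the full control effect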
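We transduce U2OS cells with the mutant 3.1 virus, culture them overnight, load FluxOr with Red40 quencher for 45 min, then add stimulation buffer and read kinetically for 2 min to derive a normalized rate constant.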
VP16 counter = VP16 counterscreen qHTS for inhibitors of ROR gamma transcriptional activity; Drosophila S2 Gal4-VP16 UAS-luciferase, luminescence, 20 h; Potency, µM (doses to about 53.6 µM), for the others: at the top dose activity, negative = inhibition, usual class: inhibitors; 3.5% of 310,000 active; AID 2546, 2010;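 also: Gal4-VP16 expression switched on by copper sulfate through the metallothionein promoter; potency is read from the fitted curve at half-maximal effect; % is scaled to controls: 0 for no effect and ±100 for the full control effect; nearly all actives have a fitted effect of over 50% in size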
RORgamma inh = qHTS for inhibitors of ROR gamma transcriptional activity; Drosophila S2 Gal4-RORgamma UAS-luciferase reporter, 20 h; Potency, µM (series often up to 53.6 µM), for the others: top-dose activity change, negative = inhibition, most hits filed as inhibitors; Nuclear receptor ROR-gamma (Mus musculus), P51450; 5.4% of 310,000 active; also: potency is read from the fitted curve at half-maximal effect; % is scaled to controls: 0 for no effect and ±100 for the full control effect; nearly all actives have a fitted effect of over 60% in size
Target sequence (P51450 whole entry, looked up, the tested form may be a part): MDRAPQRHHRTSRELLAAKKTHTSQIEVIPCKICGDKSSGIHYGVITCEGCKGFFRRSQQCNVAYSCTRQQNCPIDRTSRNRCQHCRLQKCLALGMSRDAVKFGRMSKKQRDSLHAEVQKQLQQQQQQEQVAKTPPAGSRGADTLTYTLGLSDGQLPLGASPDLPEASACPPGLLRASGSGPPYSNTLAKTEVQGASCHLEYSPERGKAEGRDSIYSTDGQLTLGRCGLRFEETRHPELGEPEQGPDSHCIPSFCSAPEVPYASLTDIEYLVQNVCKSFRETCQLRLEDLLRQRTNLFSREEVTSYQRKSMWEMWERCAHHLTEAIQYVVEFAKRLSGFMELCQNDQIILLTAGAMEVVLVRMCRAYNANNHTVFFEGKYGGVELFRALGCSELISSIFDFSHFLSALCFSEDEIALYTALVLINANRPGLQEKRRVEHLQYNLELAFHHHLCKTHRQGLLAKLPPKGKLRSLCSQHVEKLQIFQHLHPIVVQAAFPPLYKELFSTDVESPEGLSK
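Luciferase reporter read in Schneider cells carrying Gal4-RORγ (mouse) and UAS-Photinus luciferase; cells given compound 1 h before 700 uM copper sulfate induction, then incubated 20 h at ambient temperature.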
NPC1 prom act = qHTS Assay for NPC1 Promoter Activators; Huh7 NPC1 promoter luciferase reporter, 24 h; Potency, µM (highest dose often 9.22 µM), without a hit: at the highest dose activation, actives largely listed as activators; 2.4% of 320,000 active;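 also: potency is read from the fitted curve at half-maximal effect; % of control where 0% means no effect; nearly all actives have a fitted effect of over 60% in size; reporter is driven by a mutant NPC1 promoter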
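Stably transfected Huh7 (NPC1 promoter→luciferase), 1500 cells/well in Opti-MEM + 10% FBS, 2 h settle, then compound 24 h at 37 °C. Luminescence after 10 min with Amplite reagent.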
MBNL1-CUG inh = qHTS Assay for Inhibitors of MBNL1-poly(CUG) RNA binding. TR-FRET MBNL1-His/biotin-(CUG)12 binding, 665/545 ratio. 0.036% of 280,000 active. Potency, µM (top dose mostly 57.5 µM), inactives show at the highest dose activity change, negative = inhibition, hits mostly inhibitors. Muscleblind-like protein 1 (Homo sapiens), Q9NR56. AID 2675, 2010; active = well fitted inhibition curve with a large enough effect in the signal ratio, with a control signal flat, not every such curve was filed as active; inconclusive = small, poorly fitted or top-dose-only effect, or effect the other way, or a change in a side signal; inactive = no such curve, though single readings can be large or run the other way; the % refers to the signal ratio; also: potency is read from the fitted curve at half-maximal effect; % is scaled to controls: 0 for no effect and ±100 for the full control effect
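TR-FRET between His-tagged MBNL1 and biotin-(CUG)12 RNA, detected with Tb anti-His antibody (0.055 ng/ul) and streptavidin-XL665 (5 nM), 60 min at room temperature. Compounds titrated 92 nM to 58 uM; 665/545 nm ratio normalized to buffer and complex controls.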
FLuc modulator = qHTS profiling assay for firefly luciferase inhibitor/activator using purifed enzyme and Km concentrations of substrates (counterscreen for miR-21 project) | purified FLuc, Km substrates, luminescence inhibition | Potency, µM (doses to about 57.5 µM), for the others: at the highest dose activity change, negative = inhibition, actives largely listed as inhibitors | 6.9% of 360,000 active | AID 588342, 2011;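 also: potency is read from the fitted curve at half-maximal effect; plate controls were vehicle for no effect and reference inhibitor for full effect; nearly all actives have a fitted effect of over 55% in size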
Target sequence (P08659 whole entry, looked up): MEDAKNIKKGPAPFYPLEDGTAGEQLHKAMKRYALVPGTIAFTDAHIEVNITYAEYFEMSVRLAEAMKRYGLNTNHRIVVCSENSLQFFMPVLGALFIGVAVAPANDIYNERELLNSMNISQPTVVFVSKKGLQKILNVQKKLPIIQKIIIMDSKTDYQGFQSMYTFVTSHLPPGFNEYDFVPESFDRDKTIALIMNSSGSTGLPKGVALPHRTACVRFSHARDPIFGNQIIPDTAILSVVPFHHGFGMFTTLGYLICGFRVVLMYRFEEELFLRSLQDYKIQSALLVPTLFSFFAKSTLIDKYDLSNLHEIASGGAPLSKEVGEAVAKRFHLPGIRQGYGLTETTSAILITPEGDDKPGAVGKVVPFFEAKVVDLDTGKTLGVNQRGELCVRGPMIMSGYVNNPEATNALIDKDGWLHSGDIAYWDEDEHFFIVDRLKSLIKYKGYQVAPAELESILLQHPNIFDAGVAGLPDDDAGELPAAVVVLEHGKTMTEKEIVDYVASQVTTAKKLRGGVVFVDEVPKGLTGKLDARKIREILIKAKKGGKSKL
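Biochemical qHTS of compounds, final roughly 60 µM downward over six points, against 10 nM purified firefly luciferase using Km concentrations of substrates (10 uM D-luciferin, 10 uM ATP) in Tris acetate pH 7.5 buffer; luminescence output.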
Rab9 promoter act = qHTS Assay for Rab9 Promoter Activators; Huh7 Rab9 promoter-luciferase reporter, luminescence, 24 h; Potency, µM (highest dose often 9.22 µM), without a hit: at the top dose activation, negative = inhibition, most hits filed as activators; 2.8% of 320,000 active; also: potency is read from the fitted curve at half-maximal effect; % of control where 0% means no effect; nearly all actives have a fitted effect of over 60% in size
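Huh7 cells stably carrying Rab9 promoter–luciferase reporter, plated 1500 cells/well, compound added after 2 h and incubated 24 h at 37 °C; luciferase luminescence then read after 10 min with detection reagent.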
PKM2 activator = qHTS Assay for Activators of Human Muscle isoform 2 Pyruvate Kinase. Pyruvate kinase PKM (Homo sapiens), P14618. purified PKM2, Kinase-Glo ATP luminescence, activation; response scale: 0% is enzyme alone, no compound. Potency, µM (series often up to 57.5 µM), without a hit: top-dose activation, hits mostly activators. 0.34% of 260,000 active. AID 1631, 2009; also: potency is read from the fitted curve at half-maximal effect; % is scaled to controls: 0 for no effect and ±100 for the full control effect; nearly all actives have a fitted effect of over 55% in size
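Purified hPK-M2 (>95% pure) converted ADP (0.1 mM final) to ATP with 0.5 mM PEP in 50 mM imidazole pH7.2, KCl, MgCl2, Tween 20, BSA; 1 h at room temperature. ATP detected by Kinase-Glo luminescence.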
Mito fusion yeast = qHTS Assay for Small Molecule Inhibitors of Mitochondrial Division or Activators of Mitochondrial Fusion | 0.23% of 320,000 active | S. cerevisiae fusion-defective mutant growth rescue, CellTiterGlo 48 h | Potency, µM (highest dose often 46.1 µM), without a hit: top-dose growth rescue (activation), most hits filed as activators;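 also: potency is read from the fitted curve at half-maximal effect; % of control where 0% means no effect; nearly all actives have a fitted effect of over 45% in size; temperature-sensitive fusion mutants such as fzo1-1 at 37 °C on non-fermentable ethanol glycerol medium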
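Compounds are tested for their ability to restore growth of mitochondrial fusion-defective yeast strains at non-permissive 37C in YPEG medium over 48 hours. Viability is quantified by luciferase luminescence.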
Numbers without * were called inactive; ? = inconclusive; / = not tested or not shown; & = joins results of further samples; [ ] = remark or other dose. Unless noted, calls follow the shape of the dose curve; as a rule, active = well fitted curve in the direction sought with a large enough effect; inconclusive = small, poorly fitted or top-dose-only effect, or another doubt; inactive = no such curve, though single readings can be large; an effect the other way counts as inactive or inconclusive. A portion of the library; rates above refer to the full screens.

SMILES	ELG1 repair inh	KCNH2 3.1 block	VP16 counter	RORgamma inh	NPC1 prom act	MBNL1-CUG inh	FLuc modulator	Rab9 promoter act	PKM2 activator	Mito fusion yeast
CCOC(CNC(=O)c1cccn2c(=O)c3c(C)c(C)sc3nc12)OCC	?	-5	-3%	-4%	0%	3%	3%	-3%	/	?
S=C(Nc1cccnc1)N1CCc2ccccc21	0%	27	6%	-10%	16%	-11%	-4%	5%	/	4%
CC(C)C1Nc2ccc(C(=O)NCCCN3CCOCC3)cc2NC1=O (stereo unspecified)	11%	-24	0%	-11%	-7%	-1%	2%	?	1%	-9%
COc1ccc(-c2nnc3sc(-c4cccs4)nn23)cc1OC	-21%	7	2%	-6%	1%	19%	?	9%	1%	13%
Cc1ccc(Nc2nnc(SCC(=O)Nc3cccc(S(=O)(=O)N4CCCCC4)c3)s2)cc1	-22%	-7	6%	?	15%	3%	2.7µM*	17%	-3%	2%
CC(C)(C)c1ccc(C(=O)NC(=S)Nc2nc3c(s2)CCCC3)cc1	?	/	4.5µM*	1.8µM*	28%	/	5.4µM*	?	4%	3%
CCc1cc2cc(C(=O)Nc3ccc(F)cc3)sc2s1	?	1	?	?	?	?	?	2.5µM*	7%	2%
N#Cc1cnn2cc(-c3ncc(C(F)(F)F)cc3Cl)cnc12	20%	-14	-9%	74%	14%	2%	0%	22%	2%	6%
O=C(Cc1ccc(Cl)cc1)Nc1ccc(-c2cc3ccccc3oc2=O)c(Cl)c1	?	-3	2%	45%	-26%	35%[activator]	-19%	-19%	4%	28%
CCn1c(NCc2cc(Br)ccc2NS(=O)(=O)c2ccc(C)cc2)nc2ccccc21	-10%	-82*	-7%	22%	1%	-12%	1%	-4%	0%	-3%
CCCOC(=O)c1ccc(O)c(OC)c1	19%	-7	10%	0%	-1%	-10%	-6%	-3%	-6%	-12%
c1ccc2c(c1)CCCN2Cc1nnnn1C1CCCC1	-2%	-1	?	8%	-2%	1%	0%	-3%	-1%	5%
CC(C)Cn1c(=O)c(C(=O)N/N=C/c2cccc(F)c2)c(O)c2ccccc21	1%	-1	0%	-10%	3%	/	2%	-1%	12%	1%
NCCCNc1nc(N)c([N+](=O)[O-])c(NC2CCCCC2)n1	?	6	?	-39%	-46%[inhibitor]	6%	-1%	-49%[inhibitor]	/	-3%
CC1=NN(c2nc(-c3ccccc3)cs2)C(=O)C1	?	10	-24%	-33%	-8%	0%	?	-3%	1%	-8%
Cn1cc(C(=O)c2ccc(Cl)cc2Cl)cc1C(=O)O	1%	8	2%	16%	-11%	-4%	5%	20%	-2%	3%
CCC1CCc2c(sc(NC(=O)CSc3nc(-c4ccco4)cc(C(F)(F)F)n3)c2C#N)C1 (stereo unspecified)	?	3	-5%	-16%	4%	-8%	0%	-5%	-2%	-1%
Cc1ccc(-n2nc3c(c2NC(=O)c2ccc(Br)o2)CSC3)c(C)c1	-2%	8	-13%	-8%	-3%	-4%	1%	2%	0%	6%
COc1cc(C(=O)OCCC(C)C)cc(OC)c1O	-16%	1	-2%	23%	1%	-4%	-9%	0%	?	13%
CC(C)NCC#CCOc1ccc(Cl)cc1	1%	3	-19%	-5%	-5%	-11%	4%	-9%	-6%	-4%
O=C(CCn1c(=S)[nH]c2ccccc2c1=O)NCCc1ccc(Cl)cc1	23%	?	3%	-13%	-3%	/	-2%	-6%	-1%	0%
O=C(NC1CCCc2ccccc21)c1ccccc1Br (stereo unspecified)	-5%	-5	0%	16%	-2%	0%	0%	-1%	0%	0%
COc1ccc(/C=N/Nc2nc3ccccc3o2)cc1O	?	12	?	11µM*	?	?	0.95µM*	?	-9%	0%
COc1cccc(Nc2nc3ccccc3n2C(C)C)c1	-3%	/	-20%	-36%	2%	-5%	-9%	-7%	-9%	-3%
COc1cccc2oc3cc(C#Cc4ccccn4)ccc3c(=O)c12	?	19	-23%	14%	2.5µM*	?	4.8µM*	3.2µM*	-3%	-8%
CCOC(=O)c1cc(C#N)c(Oc2ccc(F)cc2)nc1-c1ccccc1	-6%	/	-7%	37%	-3%	-3%	0%	-4%	-12%	22%
Nc1c(C(=O)NCc2ccc3c(c2)OCO3)nnn1CC(=O)Nc1ccc(Br)cc1	23%	11	?	?	-25%	-14%	2%&-3%	-46%[inhibitor]	/	2%
Cc1nnc(NC(=O)CSc2nnc3c(n2)[nH]c2ccc(Br)cc23)s1	2%	3	4%	13%	-1%	8%	-5%	0%	/	5%
COc1ccc(CN(C2CCCCC2C)S(=O)(=O)c2ccc(S(=O)(=O)N(C)C)cc2)cc1OC (stereo unspecified)	?	-6	-6%	13%	-3%	0%	2%	-3%	4%	-2%
CCc1ccc(NC(=O)CSc2ccc(-c3ccco3)nn2)cc1	?	5	-7%	9%	-3%	15%	?	0%	18%	-2%

Quoted from the listing:
Value of `Cn1cc(C(=O)c2ccc(Cl)cc2Cl)cc1C(=O)O` in PKM2 activator: -2%
Value of `NCCCNc1nc(N)c([N+](=O)[O-])c(NC2CCCCC2)n1` in RORgamma inh: -39%

The list continues:
SMILES	ELG1 repair inh	KCNH2 3.1 block	VP16 counter	RORgamma inh	NPC1 prom act	MBNL1-CUG inh	FLuc modulator	Rab9 promoter act	PKM2 activator	Mito fusion yeast
Oc1ccc(N2CCN(Cc3cc4c(cc3Br)OCCO4)CC2)cc1	?	-11	-1%	-28%	-1%	-10%	-2%	2%	/	-13%
CC(C)OCCCNC(=O)CCCC(=O)Nc1ccc(OCCc2ccccc2)cc1	16%	-5	-17%	4%	-1%	1%	-7%	-4%	7%	7%
Clc1ccc(OCc2cn3ccccc3n2)c2ncccc12	?	-2	?	11µM*	3.5µM*	?	12µM*	2.8µM*	-2%	15%
COc1ccc(NC(=O)C(c2cc3c(cc2[N+](=O)[O-])OCO3)N(C)Cc2ccccc2)cc1 (stereo unspecified)	-23%	-21	-9%	1%	-6%	-1%	0%	-1%	8%	28%
Cc1cccc(OCC(=O)Nc2sc3c(c2C#N)CCC3)c1	?	-2	27%	?	?	3%	-2%	?	0%	-6%
Cc1ccc(Cc2cnc(N3C(=N)SC(c4ccccc4)C3=O)s2)cc1 (stereo unspecified)	?	12	4µM*	11µM*	0%	13%	-1%	1%	1%	1%
CCOC(=O)N1CCC(NC(=O)C2CCCN(Cc3nc(-c4ccc(CC)cc4)oc3C)C2)CC1 (stereo unspecified)	2.3µM*	-41	?	17%	-29%	-6%	1%	-38%[inhibitor]	/	-10%
COc1ccccc1NC(=O)N(Cc1ccccc1)C1=NCC(C)S1 (stereo unspecified)	?	-26	-3%	-21%	-3%	-3%	1%	4%	-2%	4%
c1ccc2oc(SCc3nc4ccccc4s3)nc2c1	/	2	11%	-37%	/	3%	4.8µM*	/	-3%	-1%
COc1ccc(NC(=O)c2cccnc2Nc2ccccc2)cc1	-13%	-15	-3%	3%	1%	7%	?	2%	1%	4%
CC(C(=O)NC(C)(C)C)N(Cc1cccs1)C(=O)CCN1CCc2ccccc21 (stereo unspecified)	?	21	6%[10 µM]	36%	-2%	0%	0%	-3%	-1%	3%
O=C1Nc2ccccc2C1(O)c1ccccc1O (stereo unspecified)	-9%	-8	7%	-3%	0%	0%	-2%	-1%	/	-3%
CCCC(c1nnnn1Cc1ccc(OC)cc1)N1CCN(C(=O)c2ccco2)CC1 (stereo unspecified)	-3%	15	-22%	-1%	-3%	-11%	2%	10%	/	32%
O=C(COc1ccc([N+](=O)[O-])cc1)Nc1ccc2c(c1)OCO2	4%	-27	-4%	18%	0%	3%	3%	5%	0%	7%
Cc1sc(NC(=O)C2CC(Cl)=CCC2C(=O)O)c(C#N)c1C (stereo unspecified)	5%	18	-14%	10%	-3%	-3%	?	-2%	-6%	0%
Cc1ccc(NC(=O)c2ccc3c(c2)CCN3S(C)(=O)=O)c(C)c1	-6%	4	2%	?	0%	-6%	-16%	15%	-2%	1%
O=C1CNC(=S)N1c1nc(-c2ccccc2)cs1	?	35	?	3.2µM*	2.8µM*	1%	2.7µM*	2.8µM*	-15%	5%
CCC(=O)N1C(C(=O)O)CSC1c1ccc(OC)cc1 (stereo unspecified)	4%	-1	3%	-10%	-3%	-2%	1%	-10%	-3%	3%
